eIF4H inh: inhibitors of RNA binding by human eIF4H; eIF4H fluorescence polarization binding assay; inhibition, % at 35 µM; 290,000 tested, 0.94% active;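 active = 50% or more with normal probe brightness, or confirmed in later tests; inconclusive = above 50% with abnormal brightness, or retests that disagree; inactive = below 50% or failed in later tests; about a fifth of its hits are not listed in these tables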;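 note: calls also rest on retests at 20 µM and on dose response follow-up; 0% = protein and probe with vehicle and 100% = probe without protein; strong numbers were not always called active; many hits fall short of the cut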
Rce1 inh: blocks yeast Ras-converting enzyme; Q03530; yeast membranes, quenched prenylated peptide cleavage fluorescence; calls only; 290,000 tested, 0.27% active; AID 2563;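 active = fall in fluorescence gain of 50% or more versus controls, with final raw signal at or below 3038400; inconclusive = same 50% fall but final raw signal above 3038400; inactive = fall in fluorescence gain under 50%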;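 note: plate controls were neutral control wells for no effect and wells lacking membranes for full effect; tested at 10 µM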
Target sequence (Q03530 whole entry, looked up): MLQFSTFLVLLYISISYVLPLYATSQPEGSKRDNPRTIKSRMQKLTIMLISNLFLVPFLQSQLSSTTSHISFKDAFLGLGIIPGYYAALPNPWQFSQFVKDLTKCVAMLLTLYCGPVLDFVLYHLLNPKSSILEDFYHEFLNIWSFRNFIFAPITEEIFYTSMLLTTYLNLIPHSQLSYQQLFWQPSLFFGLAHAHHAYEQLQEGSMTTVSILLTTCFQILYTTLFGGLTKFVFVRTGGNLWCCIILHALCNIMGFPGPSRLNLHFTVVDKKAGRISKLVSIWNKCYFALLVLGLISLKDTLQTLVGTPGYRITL
CSC inhib: cancer stem cell inhibition; AID 2717; cancer stem cell-like cells viability, luminescence; 300,000 tested, 1.1% active; inhibition, % at 7.5 µM;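 active = mean at 75% or more and at least half the replicates too; inconclusive = mean and replicates disagree; tested in HMLE shEcad cells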;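 note: 0% = median of negative and 100% = median of positive control wells; the first replicate is given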
PABP FP inh: PABP-poly(A) binding inhibition; P11940; PABP-poly(A) RNA binding, fluorescence polarization; inhibition, % at 35 µM; 290,000 tested, 1% active;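 active = 50% or more with normal probe brightness, or confirmed in later tests; inconclusive = above 50% with abnormal brightness, or retests that disagree; inactive = below 50% or failed in later tests; about a fifth of its hits are not listed in these tables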;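 note: calls also rest on retests at 20 µM and on dose response follow-up; controls were probe without protein and protein plus probe with vehicle; some compounds called inactive have numbers as strong as hits; many hits fall short of the cut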
Target sequence (P11940 whole entry, looked up): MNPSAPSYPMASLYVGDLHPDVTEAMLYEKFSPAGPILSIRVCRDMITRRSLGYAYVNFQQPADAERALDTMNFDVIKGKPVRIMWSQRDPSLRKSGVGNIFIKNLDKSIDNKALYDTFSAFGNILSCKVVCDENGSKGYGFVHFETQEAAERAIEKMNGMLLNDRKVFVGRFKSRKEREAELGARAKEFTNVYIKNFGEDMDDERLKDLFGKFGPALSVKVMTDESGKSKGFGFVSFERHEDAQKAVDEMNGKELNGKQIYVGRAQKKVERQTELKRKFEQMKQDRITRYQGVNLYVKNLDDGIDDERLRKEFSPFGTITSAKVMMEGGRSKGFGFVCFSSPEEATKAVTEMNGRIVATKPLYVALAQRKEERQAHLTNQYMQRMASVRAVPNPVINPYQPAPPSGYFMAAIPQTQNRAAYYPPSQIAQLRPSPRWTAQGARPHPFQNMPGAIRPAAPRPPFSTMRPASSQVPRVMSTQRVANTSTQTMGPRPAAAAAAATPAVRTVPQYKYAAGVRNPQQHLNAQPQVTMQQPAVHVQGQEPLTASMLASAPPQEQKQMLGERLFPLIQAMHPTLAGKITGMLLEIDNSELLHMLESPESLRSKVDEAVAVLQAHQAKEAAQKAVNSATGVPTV
MT1-MMP act inh: MT1-MMP (human) activation inhibition. HT1080 RFP-PRO-GFP cells, GFP/RFP ratio fluorescence, overnight; percent of plate control window, DMSO zero. GFP/RFP ratio change, % at 20 µM. 360,000 tested, 0.061% active;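 active = GFP/RFP ratio change of at least 30% with cell ATP level not reduced by more than half and red fluorescence within 50% of control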; note: strong numbers were not always called active
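Test system: HT1080 cells expressing an RFP-PRO-GFP fluorescent reporter construct / Compound dosing: single-point 20 µM compound, 1% DMSO / Schedule: cells overnight before dosing, compound overnight, 37 °C, 5% CO2 / Evaluation: GFP/RFP fluorescence ratio / Control set: DMSO and RFP-L50D-GFP cell wells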
HIV Env fusion: inhibitors of HIV Env-mediated cell fusion. inhibition, % at 12.3 µM. HeLa-JRFL Env/CEM21 cell fusion, luciferase. 360,000 tested, 1.1% active;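 active = mean replicate inhibition score of at least 50 and every replicate individually at or above 50; inconclusive = only one of the two criteria met; inactive = mean below 50 and not all replicates reaching 50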;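 note: 0% = plate neutral controls and 100% = maraviroc near 300 nM; one replicate is shown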
Yeast UUG start: yeast start codon fidelity modulation. S. cerevisiae UUG-firefly luciferase reporter, luminescence/redox ratio. activity score, % at 18.7 µM. 350,000 tested, 0.13% active;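 active = replicate mean at a twofold rise or more, about +100% in these data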;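 note: firefly luciferase made from a UUG start codon reports start codon fidelity; reporter light over untreated wells divided by growth signal over untreated wells; some hits fall short of that in this replicate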
eIF4H inh retest: second read-out of eIF4H inh, no call of its own (marks repeat the call); inhibition, %; compound at 20 µM; confirmation average;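 mean of two retest wells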
PABP FP inh retest: further read-out of PABP FP inh, marked with its call; inhibition, %; compound at 20 µM; confirmation repeats;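 mean of two retest wells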
MT1-MMP act inh RFP: recorded beside MT1-MMP act inh, whose call it bears; RFP signal change, %; measured here: RFP expression control read;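 0 = vehicle wells; hits needed this value within 50% of zero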
Numbers without * were called inactive; i = inactive; ? = inconclusive; · = no result given; & = joins results of further samples.

SMILES	eIF4H inh	Rce1 inh	CSC inhib	PABP FP inh	MT1-MMP act inh	MT1-MMP act inh RFP	HIV Env fusion	Yeast UUG start	others
Nc1nc2c(ncn2C2CCCC2)c(=O)[nH]1	·	·	·	·	0	5	10	-9
Cn1nc(OC(=O)Nc2ccccc2)cc1C(F)(F)F	-1	i	·	-5	·	·	·	·
CN(Cc1ccco1)C(=O)C1CCC(=O)N(CCc2cccc(F)c2)C1 (centres undefined)	-12	i	-3	6	1	-1	·	-2
Nc1ncc(Br)cc1S(=O)(=O)NCCC(=O)N1CCN(c2ccccn2)CC1	-4	i	-1	2	-1	3	·	-4
CN(C(=S)NC(=O)/C=C/c1ccc(F)cc1)C1CCCCC1	2	i	-5	-9	-2	0	-14	·
C/C(=N/NS(=O)(=O)c1ccc(Br)cc1)c1cccc(NC(=O)C2CC2)c1	·	·	·	·	3	3	-16	-10
CCc1noc(C)c1C(=O)Nc1ccc(C(F)(F)F)cc1	1	i	1	6	3	6	-2	-12
COc1cccc(/C=C2\SC(=S)N(C(C(=O)O)c3ccccc3)C2=O)c1OC (centres undefined)	-1	i	-14	0	-1	1	11	12
CSc1ccccc1NC(=O)Cn1c([N+](=O)[O-])cnc1C	-8	i	1	5	3	-2	1	-18
CC(C)C[C@H](NC(=O)[C@@H]1O[C@H]1C(=O)O)C(=O)NCCCCN=C(N)N	-12	i	-11	-1	0	1	15	-39
CCOC(=O)CSc1nc(N)nc(C)c1Cl	5	i	-3	-8	0	6	7	·
Cc1nc2sc(C(c3cccc(F)c3)N3CCCC(C)C3)c(O)n2n1 (centres undefined)	5	i	21	-1	-3	4	·	-7
COc1cc(Cl)c(C)cc1NC(=O)CSc1ccccc1	-8	i	-13	24	0	0	8	·
O=C(NCCCN1CCOCC1)c1ccc2nc(Cc3cccc(Cl)c3)oc2c1	-8	·	20	-14	3	4	·	-21
CC(=O)Nc1cc(-c2cccc(C(=O)NCCN(C)C)c2)cn2c(-c3ccc(F)c(Cl)c3)cnc12	·	·	·	·	5	0	18	-3
CC(=O)N1CCN(Cc2nc3cc(Cl)ccc3c(=O)[nH]2)CC1	-9	i	1	15	-2	4	16	-14
CC(C)[C@@H](COc1ccccc1)N1CCN(Cc2ccccc2)CCC1=O	6	i	0	-2	-6	-7	-37	-20
Cc1cc2c(Nc3ccccc3O)ncnc2s1	·	·	·	·	6	1	16	0
O=C(Nc1ccc(F)cc1F)c1cc(-c2ccco2)nc2ccccc12	-3	i	7	9	-3	0	4	-6
COC(=O)c1ccccc1NC(=O)CSc1nc(O)cc(=O)n1C1CCCC1	2	i	-1	10	-8	-2	-49	6

Quoted from the listing, three compounds:
SMILES	eIF4H inh	Rce1 inh	CSC inhib	PABP FP inh	MT1-MMP act inh	MT1-MMP act inh RFP	HIV Env fusion	Yeast UUG start	others
Nc1nc2c(ncn2C2CCCC2)c(=O)[nH]1	·	·	·	·	0	5	10	-9
Cn1nc(OC(=O)Nc2ccccc2)cc1C(F)(F)F	-1	i	·	-5	·	·	·	·
CN(Cc1ccco1)C(=O)C1CCC(=O)N(CCc2cccc(F)c2)C1 (centres undefined)	-12	i	-3	6	1	-1	·	-2

Additional records follow:
SMILES	eIF4H inh	Rce1 inh	CSC inhib	PABP FP inh	MT1-MMP act inh	MT1-MMP act inh RFP	HIV Env fusion	Yeast UUG start	others
CCc1nc2c(OCC(=O)C(C)(C)C)cccn2c1N(C=O)Cc1ccccc1	·	·	·	·	-1	1	3	-14
Cc1c(C(=O)N2CCN(CC(=O)Nc3ccccc3Cl)CC2)oc2ccc(Br)cc12	·	·	·	·	-4	-3	?	-12
COc1ccc(-c2[nH]ncc2CNC(C)CCn2cccn2)cc1F (centres undefined)	-6	i	·	2	-2	-5	-13	-24
Cc1nnc(Nc2ccc(F)cc2)c2ccccc12	-3	i	-13	-1	-2	5	-13	-3
CCS(=O)(=O)Nc1cccc(C2=NN(C(=O)c3ccco3)C(c3ccco3)C2)c1 (centres undefined)	-6	i	51	-8	-7	-12	-78	-8
CCS(=O)(=O)n1nc(-c2cccnc2)nc1NCc1ccc(F)cc1	-9	i	2	-2	-2	-3	-9	·
Nc1nnc(CC(=O)N/N=C/c2ccc(-c3cccc(C(=O)O)c3)o2)s1	76*	·	4	41	-5	2	7	-10	eIF4H inh retest=92*;PABP FP inh retest=44
Cc1ccc(NC(=O)c2c([N+](=O)[O-])c(C(C)(C)C)nn2C)c(C)c1	47	i	-4	-1	7	1	·	·
CCCOc1ccc(C(=O)CCC(=O)NNC(=O)c2cccs2)cc1	·	·	-2	·	7	5	4	-21
C/C(=N\NC(N)=S)C1=CCC2C3CC[C@H]4CC(O)CC[C@]4(C)C3CC[C@]12C (some centres undefined)	7	i	·	-4	-34	-32	-43	-27
Cc1cc(CNC(=O)CC2C(=O)NCCN2CC(C)(C)C)nn1C (centres undefined)	32	i	-5	14	-4	1	6	·
CSc1nsc(SCC(=O)Nc2cccc(NC(C)=O)c2)n1	-7	i	1	10	-1	2	-11	-15
O=[N+]([O-])c1ccc(-c2ccc(/C=N/c3c(-c4ccco4)nc4ccccn34)o2)c(Cl)c1	34	i	·	-4	·	·	·	·
CCN=C1SC(C(=O)NCCc2ccccc2)CC(=O)N1CC (centres undefined)	-2	i	1	6	-1	1	-22	-7
O=C(Cc1ccccc1)Nc1nc(-c2cccs2)cs1	1	i	1	-1	-16	-17	-61	-6
Cc1nnc2sc(SCc3ccccc3)nn2c1=O	-1	i	0	-5	·	·	·	·
COc1ccc(N2CCN(CCS(=O)(=O)c3cc(Cl)ccc3Cl)CC2)cc1	·	·	·	·	1	0	-8	6
Cc1ccc(NC(=O)C2CCCN(S(=O)(=O)c3ccc4[nH]c(=O)ccc4c3)C2)nc1 (centres undefined)	-5	i	-9	2	1	-1	35	-12
CCNC(=S)N1CCN(C(=O)C(Cc2ccccc2)NC(C)=O)CC1 (centres undefined)	-2	i	-9	3	-1	0	-3	-25
O=C1[C@@H]2[C@H](C(=O)N1CC(O)COCc1ccccc1)C1C=C[C@H]2C1 (some centres undefined)	·	·	·	·	4	8	12	-13
Cc1ccc(C(=O)CSc2nnc(Cn3nnc4ccccc43)n2C)cc1	-8	i	-4	-13	6	-3	·	-13
CCCCOc1ccc(C(=O)N2CCNC(=O)C2)cc1	-7	i	·	-6	3	3	3	-6
CCn1cc(NC(=O)Nc2ccc(OC)c(OC)c2)c(C(N)=O)n1	-4	i	-10	2	11	0	5	-23
CCOC(=O)Cn1nc(C)n(-c2ccc(C(C)(C)C)cc2)c1=O	3	i	-13	2	4	10	-29	8
CCCCN(C)CCn1c(=S)[nH]c2ncccc2c1=O	-2	i	-8	-4	-9	-3	-8	-8
Cc1[nH]nc2ncc(C(=O)c3cc(Cl)cc(Cl)c3O)cc12	-10	i	5	3	-3	1	26	-7
O=C(N/N=C/c1ccc(N2CCOCC2)o1)c1cccc([N+](=O)[O-])c1	2	i	10	-8	0	5	20	·
CCOc1ccccc1N(CC)C(=O)Cn1ncc2c(=O)oc3ccccc3c21	-8	i	-2	5	-1	3	-13	-1
O=C(NN1CC(C(=O)OCc2ccc(Br)cc2)CC1=O)c1ccccc1 (centres undefined)	-16	i	-20	2	0	3	4	-9
CCSc1nc2sc3c(c2c(=O)[nH]1)CC(C)(CC)OC3 (centres undefined)	-4	i	-2	2	3	-2	-41	-7
COC(=O)c1cc(Br)ccc1-c1ccc(/C=N/n2nnnc2N)o1	4	i	10	5	-1	-5	17	-30
N#Cc1c(Nc2ccccc2)sc(C(=O)c2ccccc2)c1N	1	i	13	4	-1	3	·	·
O=C(NCCc1ccccc1C(F)(F)F)c1cc(COc2ccccc2)on1	·	·	·	·	1	-1	1	-11
Cc1cc2occ(CC(=O)NC3=NCCS3)c2cc1C(C)C	-7	i	16	-9	0	-3	-15	-20
CCC(C(=O)NC(C)(C)C)N(C(=O)Cn1nnc(-c2ccccc2F)n1)c1cccc2c1CCCC2 (centres undefined)	2	i	6	-9	-10	-5	-34	-20
c1ccc(N=Nc2ccc(C3=NCCO3)cc2)cc1	·	·	·	·	4	2	-254	-51
Cc1c(OC(C)C(=O)N2C[C@H]3C[C@@H](C2)c2cccc(=O)n2C3)ccc2c3c(c(=O)oc12)CCC3 (some centres undefined)	6	i	-13	-1	2	1	·	-2
O=Cc1c(OCc2ccccc2)ccc2ccccc12	6	i	13	-3	-2	-3	-52	-15
Cc1nc2ccc(NC(=O)[C@H](C)N3C(=O)C4CC=CCC4C3=O)cc2s1 (some centres undefined)	·	·	-16	·	-4	2	·	-6
COc1ccccc1N1CCN(C(=O)c2sc3nc(C)nc(N4CCN(c5ccccn5)CC4)c3c2C)CC1	-11	i	14	4	-3	-8	24	11

Retrieved by compound from the entries so far, 5 records:
SMILES	eIF4H inh	Rce1 inh	CSC inhib	PABP FP inh	MT1-MMP act inh	MT1-MMP act inh RFP	HIV Env fusion	Yeast UUG start	others
O=C(NN1CC(C(=O)OCc2ccc(Br)cc2)CC1=O)c1ccccc1 (centres undefined)	-16	i	-20	2	0	3	4	-9
CCCCN(C)CCn1c(=S)[nH]c2ncccc2c1=O	-2	i	-8	-4	-9	-3	-8	-8
COc1ccccc1N1CCN(C(=O)c2sc3nc(C)nc(N4CCN(c5ccccn5)CC4)c3c2C)CC1	-11	i	14	4	-3	-8	24	11
Cc1nc2ccc(NC(=O)[C@H](C)N3C(=O)C4CC=CCC4C3=O)cc2s1 (some centres undefined)	·	·	-16	·	-4	2	·	-6
O=Cc1c(OCc2ccccc2)ccc2ccccc12	6	i	13	-3	-2	-3	-52	-15

Going on with the list:
SMILES	eIF4H inh	Rce1 inh	CSC inhib	PABP FP inh	MT1-MMP act inh	MT1-MMP act inh RFP	HIV Env fusion	Yeast UUG start	others
Cn1c(Oc2ccc(F)cc2)c(C=O)c2ccccc21	-5	i	-7	6	-6	0	17	·
COc1ccc2cc3[n+](cc2c1OC)CCc1cc2c(cc1-3)OCO2	5	i	-4&-3	26	-12&25	-25&-19	?	-9&7
CN(C)C(CNC(=O)c1ccccc1OCc1ccc(Cl)cc1)c1ccco1 (centres undefined)	·	i	8	·	-4	-2	7	-14
CCCN1C2CCCC1CC(NC(=O)NC13CC4CC(CC(C4)C1)C3)C2 (centres undefined)	6	i	4	-6	3	5	7	-3
O=C(Nc1ccc(S(=O)(=O)N2CCCCC2c2cccnc2)cc1)c1c(F)cccc1F (centres undefined)	3	i	-3	4	1	-2	-2	·
Cc1cc(NC(=O)CN2CCN(c3ccc(O)cc3)CC2)no1	-2	i	28	-6	-3	3	21	-8
CCCCN(C)C(=S)Nc1ccc(Oc2ccccc2)cc1	-5	i	3	-2	7	1	12	-7
O=C(Nc1ccc(Cl)cc1)Nc1nnc(CSCc2ccccc2)s1	-5	i	24	98	-2	-1	·	·	eIF4H inh retest=35;PABP FP inh retest=15
Cc1ccccc1NC(=O)CCCCCN1C(=O)[C@@H]2Cc3ccccc3CN2C1=O	-21	i	20	-10	3	-2	-16	10

Compound activity deposited in PubChem by several laboratories.

An excerpt. The share of hits here may be higher or lower than overall.
